Compound activity from PubChem BioAssay.
Env fusion inh = HIV envelope-mediated fusion inhibition. HeLa-JRFL Env/CEM21 cell fusion, luciferase. inhibition, % at 12.3 µM. 1.1% of 360,000 active;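 active = mean replicate inhibition score of at least 50 and every replicate individually at or above 50; inconclusive = only one of the two criteria met; inactive = mean below 50 and not all replicates reaching 50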;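 note: 0% = plate neutral controls and 100% = maraviroc near 300 nM; one replicate is shown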
MT1-MMP act inh = inhibitors of human MT1-MMP activation; P50281; HT1080 RFP-PRO-GFP cells, GFP/RFP ratio fluorescence, overnight; percent of plate control window, DMSO zero; GFP/RFP ratio change, % at 20 µM; 0.061% of 360,000 active;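 active = GFP/RFP ratio change of at least 30% with cell ATP level not reduced by more than half and red fluorescence within 50% of control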; note: strong numbers were not always called active
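Compound: 20 µM single dose, 1% DMSO / System: HT1080 RFP-PRO-GFP cells / Controls: DMSO and RFP-L50D-GFP cell wells / Read-out basis: GFP/RFP fluorescence ratio / Schedule: overnight compound exposure at 37 °C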
MT1-MMP act inh RFP = also measured in MT1-MMP act inh; calls as there; RFP signal change, %; measured here: RFP expression control read;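 0 = vehicle wells; hits needed this value within 50% of zero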
Active calls of the source: *; ? = inconclusive; [ ] = dose if it differs, or a comment. Not all compounds are listed. The share of hits here may be higher or lower than overall.

Env fusion inh	MT1-MMP act inh	MT1-MMP act inh RFP	molecule
-15	6	2	O=C(C(=O)N1CCC(Cc2ccccc2)CC1)c1cccs1
28	-12	-28	COc1ccc(-c2cc3nc(NCc4ccc(C)cc4C)n(C)c(=O)c3s2)cc1OC
-45	-2	-1	O=C1NC[C@@H](CCCCN2C[C@H](Cc3ccccc3)N(Cc3ccccc3)C(=O)C2=O)N(CCc2ccccc2)C1=O
-8	2	-2	CCCCn1nnnc1C(c1ccccc1)N1CCN(c2ccc(C)cc2)CC1 (configuration not stated)
29	3	6	CCOC(=O)[C@]12CCCC=C1N(Cc1ccco1)C(=O)[C@H](CC(=O)N1CCN(C(=O)c3ccco3)CC1)C2
-8	5	3	COc1ccccc1C(C(=O)c1ccccc1)c1ccc(O)cc1 (configuration not stated)
-66	7	-11	C#CCn1cc2c(c1-c1ccccc1)c(=O)n(C)c(=O)n2C
-8	2	5	COc1ccc(NC(=O)C2c3ccccc3OCC(=O)N2CCc2ccccc2)cc1 (configuration not stated)
11	5	3	CCC(CC)C(C(=O)NC1CCCC1)N1CCN(c2cc(C)nc3ccccc23)CC1 (configuration not stated)
-200[16.7 µM]	11	-1	CCNC(=O)c1cc2c(c(-c3cccc(-c4cccnc4)c3)n1)[C@H](CCO)N(S(C)(=O)=O)C2
-7	5	7	C#CCNC(=O)C[C@@H]1C[C@@]2(C(=O)OC)CCCCC=C2N(Cc2ccccc2)C1=O
-29	1	7	CCCN(C)C1CN(Cc2cn(Cc3ccccc3)nn2)S(=O)(=O)C1 (configuration not stated)
7	1	-5	CCCCOCCCNC(=O)C[C@@H]1C[C@@]2(C(=O)OC)CC(C)(C)CC=C2N(Cc2ccccc2)C1=O
-6	-5	-1	Cc1cc(C)n2c(Nc3c(C)cccc3C)c(CC(C)C)nc2n1
14	5	5	O=C(NCc1ccccc1)C(c1ccc(F)cc1)N1CCN(C(=O)C2CCCO2)CC1 (configuration not stated)
1	0	1	O=C(/C=C/c1ccco1)c1cccc([N+](=O)[O-])c1
-69	0	-2	Cn1c(-c2ccccc2)c(Sc2ccccc2)c2cc(-c3ccc4cc[nH]c4c3)ccc21
-7	-1	5	CC(C)n1nnnc1C1c2ccccc2C(=O)N1Cc1ccco1 (configuration not stated)
-6	0	-1	N#CCc1ccc(OCCCN2CCC(C(O)(c3ccccc3)c3ccccc3)CC2)cc1
28	-12	-25	CN(Cc1ccc(Cl)c(Cl)c1)C(c1cc2ccccc2o1)c1nnnn1C(C)(C)C (configuration not stated)
?	-2	1	C[C@@H]1COc2cccc(N3CCN(Cc4ccccc4F)CC3)c2S(=O)(=O)N1
13	5	-3	CCCCC[C@@H]1CCCCC[C@H](O)C[C@@H](O)[C@@H](O)/C=C/C(=O)O1
-12	13	8	COCCN1C(=O)CSCC1(C)C(=O)NCc1ccccc1 (configuration not stated)
20	3	2	O=C(CCCSCCCC(=O)NN=Cc1ccccc1)NN=Cc1ccccc1
63*	9	-2	N#CN=CN1CC=C(c2ccc(Cl)cc2)CC1
-3	-1	2	COc1cccc(-c2nc3nc(C)cc(C)n3c2NC2CCCC2)c1
-102	-1	0	CC(=O)C(=Cc1cccc(C#N)c1)C(=O)c1ccccc1
21	4	-1	CNc1ncnc(Sc2nc(N)nc3nc[nH]c23)c1[N+](=O)[O-]
-14	-2	3	O=C(c1cnc(Cl)c(Cl)c1)N1CCN(S(=O)(=O)c2ccc3ccccc3c2)CC1
-42	-2	12	O=c1c(-c2ccco2)nc2ccccc2n1C(CCc1ccccc1)c1nc2ccccc2[nH]1 (configuration not stated)
12	-3	-6	Cc1ccc(N2CCN(C(C(=O)Nc3c(C)cccc3C)c3cccc(F)c3)CC2)cc1 (configuration not stated)
6	-2	3	CSCCC(c1nc2ccccc2[nH]1)n1c(=O)c(-c2ccco2)nc2ccccc21 (configuration not stated)
-1	6	7	CN1CCN(C2CN(Cc3cn(Cc4cccc(Cl)c4)nn3)S(=O)(=O)C2)CC1 (configuration not stated)
5	0	9	CC(=O)Nc1ccc(S(=O)(=O)NC2(c3ccccc3)C(=O)N(C)C(=O)N(C)C2=O)cc1
26	-40	1	O=C1NC2c3c(I)sc(I)c3C(=O)C2O1 (configuration not stated)
-3	2	4	O=C(O)c1cc(N2CCCCC2)ccn1
0	-2	-3	Cc1cccc(C)c1NC(=O)COC(=O)c1c(C)nn(-c2ccccc2)c1C
-10	2	4	COc1ccc(CCn2c(-c3cccc([N+](=O)[O-])c3)nc3nc4ccccc4nc32)cc1
3	2	-5	O=C(C(=Cc1ccccc1)c1ccccc1)c1ccccc1
-25	3	0	CC(C)C[C@H]1CN(CCCC[C@H]2CNC(=O)C(=O)N2CC2CCCCC2)C(=O)C(=O)N1CC1CCCCC1
-13	5	2	CCCCn1nnnc1C1(C)CCC(=O)N1CCCN1CCOCC1 (configuration not stated)
10	4	1	O=C(NCc1ccncc1)[C@@H]1CCCN1C(=O)[C@H]1CCCN1C(=O)c1cccc2ccccc12
-3	-2	-2	COc1ccc(Cc2c(-c3ccc(Cl)cc3)nc3cc(C)c(Br)c(C)n23)c(C)c1
-11	-2	1	O=C1c2ccccc2C(c2nnnn2Cc2ccccc2)N1CCc1c[nH]c2ccccc12 (configuration not stated)
-20	-5	-8	Cc1ccc(N2CCN(C(CCc3ccccc3)C(=O)Nc3c(C)cccc3C)CC2)cc1 (configuration not stated)
13	19	-31	COC(=O)[C@]12CCCCC=C1N(Cc1cccc3ccccc13)C(=O)[C@H](CC(=O)NCc1ccc(OC)c(OC)c1)C2
16	1	3	CC(C)c1cc(Cn2c3ccccc3c(=O)n2C(C)Cn2cc(-c3ccccc3)nn2)on1 (configuration not stated)
14	5	-25	O=C(NCCN1CCC(n2c(=O)[nH]c3ccccc32)CC1)c1ccc(C(F)(F)F)cc1C(F)(F)F
16	7	1	COc1cc([N+](=O)[O-])c2nc(C(=O)O)ccc2c1
-1	-10	-17	CCCCCCCCN1C(=O)[C@H](CC(=O)NCC23CC4CC(CC(C4)C2)C3)C[C@@]2(C(=O)OC)CC(C)(C)CC=C12
-140	3	1	Cc1cnc(NC(=O)c2ccc3ncsc3c2)s1
-6	8	2	CC(C)C[C@H]1COc2cc(N3CC[C@H](O)C3)ccc2S(=O)(=O)N1
-36	0	3	CC(C)(COC(=O)c1ccccc1)N1CC2CCC(C1)O2
11	6	8	COC(=O)C1C(=O)N(S(=O)(=O)c2ccc([N+](=O)[O-])cc2)c2ccccc21 (configuration not stated)
-7	-34	-31	CC(C)(C)NC(=O)C(c1cc2ccccc2o1)n1c(=O)c(-c2ccccc2)nc2ccccc21 (configuration not stated)
23	0	-16	CCCc1c(-c2cccc(Br)c2)ncn1Cc1ccccc1OC
45	13	1	Nc1ccc(C(=O)NN2C(=O)[C@H](Cl)C2c2ccc(Cl)cc2)cc1 (some centres not stated)
-21	1	9	OCC1OC(n2cnc3ncccc32)C(O)C1O (configuration not stated)
27	-11	-23	Cc1nc2c(OCc3ccc(OC(F)F)cc3)cccn2c1N(C)C(=O)CCC1CCCC1
-10	0	-4	CCNC(=O)c1cc2c(c(-c3cccc(-c4ccccc4F)c3)n1)[C@@H](CCO)N(C(=O)CC1CC1)C2

18 neighbouring records out of the list so far, for reference:
Env fusion inh	MT1-MMP act inh	MT1-MMP act inh RFP	molecule
-3	-2	-2	COc1ccc(Cc2c(-c3ccc(Cl)cc3)nc3cc(C)c(Br)c(C)n23)c(C)c1
-11	-2	1	O=C1c2ccccc2C(c2nnnn2Cc2ccccc2)N1CCc1c[nH]c2ccccc12 (configuration not stated)
-20	-5	-8	Cc1ccc(N2CCN(C(CCc3ccccc3)C(=O)Nc3c(C)cccc3C)CC2)cc1 (configuration not stated)
13	19	-31	COC(=O)[C@]12CCCCC=C1N(Cc1cccc3ccccc13)C(=O)[C@H](CC(=O)NCc1ccc(OC)c(OC)c1)C2
16	1	3	CC(C)c1cc(Cn2c3ccccc3c(=O)n2C(C)Cn2cc(-c3ccccc3)nn2)on1 (configuration not stated)
14	5	-25	O=C(NCCN1CCC(n2c(=O)[nH]c3ccccc32)CC1)c1ccc(C(F)(F)F)cc1C(F)(F)F
16	7	1	COc1cc([N+](=O)[O-])c2nc(C(=O)O)ccc2c1
-1	-10	-17	CCCCCCCCN1C(=O)[C@H](CC(=O)NCC23CC4CC(CC(C4)C2)C3)C[C@@]2(C(=O)OC)CC(C)(C)CC=C12
-140	3	1	Cc1cnc(NC(=O)c2ccc3ncsc3c2)s1
-6	8	2	CC(C)C[C@H]1COc2cc(N3CC[C@H](O)C3)ccc2S(=O)(=O)N1
-36	0	3	CC(C)(COC(=O)c1ccccc1)N1CC2CCC(C1)O2
11	6	8	COC(=O)C1C(=O)N(S(=O)(=O)c2ccc([N+](=O)[O-])cc2)c2ccccc21 (configuration not stated)
-7	-34	-31	CC(C)(C)NC(=O)C(c1cc2ccccc2o1)n1c(=O)c(-c2ccccc2)nc2ccccc21 (configuration not stated)
23	0	-16	CCCc1c(-c2cccc(Br)c2)ncn1Cc1ccccc1OC
45	13	1	Nc1ccc(C(=O)NN2C(=O)[C@H](Cl)C2c2ccc(Cl)cc2)cc1 (some centres not stated)
-21	1	9	OCC1OC(n2cnc3ncccc32)C(O)C1O (configuration not stated)
27	-11	-23	Cc1nc2c(OCc3ccc(OC(F)F)cc3)cccn2c1N(C)C(=O)CCC1CCCC1
-10	0	-4	CCNC(=O)c1cc2c(c(-c3cccc(-c4ccccc4F)c3)n1)[C@@H](CCO)N(C(=O)CC1CC1)C2

More structures
Env fusion inh	MT1-MMP act inh	MT1-MMP act inh RFP	molecule
13	-16	-3	COC(=O)c1cccc(N2C(=O)C[C@](Sc3ccc(C)cc3)(C(=O)OC)[C@H]2c2ccccc2)c1
-10	0	4	O=C(NNC(=O)c1ccncc1)Nc1ccc(Cl)cc1
3	4	0	O=C1CCCCC1Nc1ccc(Cl)cc1 (configuration not stated)
-4	0	3	CCC1(C)CC(C#N)(C#N)C(=O)NC1=O (configuration not stated)
3	4	1	CC(NCCN(C)C)C1CCC2C3CCc4cc(O)ccc4C3CCC12C (configuration not stated)
8	-1	-2	COc1ncc(-c2c(-c3ccccc3OC)sc3ccccc23)cn1
-4	8	10	O=[N+]([O-])c1nccn1C1C=CC(O)C(CO)O1 (configuration not stated)
-11	4	-1	O=P(C(=S)Nc1ccccc1Cl)(c1ccccc1)c1ccccc1
6	6	-2	c1ccc(CN2CCOCC2)nc1
-18	4	-3	COc1ccc([C@H]2CC(=O)C[C@@H](CCn3cc(-c4ccccc4)nn3)O2)cc1
7	-1	0	O=C(NCc1ccccc1OC(F)(F)F)C1CCC(=O)N(CCCN2CCOCC2)C1 (configuration not stated)
10	3	1	COc1cccc(-c2oc3c(c2-c2ccc(OC)nc2)C(O)CCC3)c1 (configuration not stated)
-1	2	4	Cc1c(C)c([N+](=O)[O-])c(C)c(C)c1N
17	5	4	CC1(C(=O)NS(=O)(=O)c2ccccc2Cl)CCN1C(=O)CCC1CCCC1 (configuration not stated)
-12	4	1	CC(C)C[C@H]1COc2cc(N3CCSCC3)ccc2S(=O)(=O)N1
5	0	5	COCCNC(=O)C1C(=O)Nc2ccccc2C(=O)N1C1CCCC1 (configuration not stated)
-3	5	6	Cc1ccccc1CN1C(=O)CN(S(C)(=O)=O)CC1(C)C(=O)Nc1ccc2c(c1)OCCO2 (configuration not stated)
-41	5	-1	C#CC1(NC(=S)Nc2cccc(OC)c2)CCCCC1
15	-4	5	O=C(O)c1cc(Cl)n[nH]c1=O
-15	-1	5	COc1cccc(CN(c2ccccc2C(=O)O)S(=O)(=O)c2ccc(C)cc2)c1
26	-5	-3	COc1cc(OC)cc(C2=Cc3ccccc3C(CC(=O)c3ccco3)N2c2ccc(-c3cncnc3)cc2)c1 (configuration not stated)
16	0	4	Cc1cn(C2CCCCC2)c(=O)n(-c2ccccc2)c1=O
0	4	7	O=C1NC[C@@H](CCCCN2C[C@H](Cc3ccccc3)N(CCc3ccccc3)C(=O)C2=O)N(Cc2ccccc2)C1=O
2	-1	2	Cc1cn([C@H]2C[C@H](O)[C@@H](CNCc3ccc(-c4cc(Cl)ccc4C(F)(F)F)o3)O2)c(=O)[nH]c1=O
-15	2	1	COC(=O)[C@]12CCCCC=C1N(Cc1ccco1)C(=O)[C@H](CC(=O)NCc1cccs1)C2

One compound at a time (already shown). Order of screens: Env fusion inh	MT1-MMP act inh	MT1-MMP act inh RFP
`O=C(O)c1cc(Cl)n[nH]c1=O` is entered as 15	-4	5
`O=C1NC[C@@H](CCCCN2C[C@H](Cc3ccccc3)N(Cc3ccccc3)C(=O)C2=O)N(CCc2ccccc2)C1=O` is entered as -45	-2	-1
